# GLA inh pH 4.5: alpha-galactosidase A (human) inhibition, pH 4.5; P06280; activity change, negative = inhibition, % at 105 µM; purified enzyme, 4-MU-alpha-Gal fluorescence, pH 4.5; 230,000 tested, under 10 active; inconclusive = small, poorly fitted or top-dose-only inhibition, or a rising curve; inactive = flat fitted curve, though single readings scatter; no compound was filed as active;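 note: 0% = full activity with enzyme and -100% = basal without enzyme; dose as in the result columns while the protocol names 77 µM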
# Rango release inh: inhibitors of RanGTP-induced Rango-importin beta complex dissociation; Potency, µM (highest dose often 46.1 µM), for the others: top-dose activity change, negative = inhibition; Biochemical FRET Rango-importin beta, RanGTP-induced dissociation; 0.071% of 340,000 active; O95149+P62826; active means falling FRET ratio curve, often poorly fitted, with flat reads before Ran was added; inconclusive means other falling curves, or compound fluorescence or quenching; inactive means flat or rising ratio curve;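 note: potency is the fitted concentration of half-maximal effect; % of control where 0% means no effect; nearly all actives have a fitted effect of over 45% in size; -100% = wells without RanGTP and RCC1; the record marks most hits as doubtful in a second field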
#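 Recombinant Rango FRET biosensor (EYFP–snurportin 1 IBB–cerulean CFP10) at 0.1 uM premixed with 0.25 uM importin beta in PBS, 1 mM DTT, 0.02% Tween-20, 0.1% BSA. Compound added 5 min; RanGTP-RCC1 (0.6 uM Ran, 2 mM GTP, 0.2 uM RCC1) then triggers release, read at 45 min.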
# miR-21 reporter: miR-21 reporter, rising signal | HeLa miR-21 FLuc reporter, luciferase, 48 h | Potency, µM (doses to about 38.3 µM), inactives show top-dose reporter change, positive = more light | 340,000 tested, under 10 active; active = well fitted rising curve with a large enough effect; inconclusive = small, poorly fitted or top-dose-only effect; inactive = no such curve, though single readings can be large or run the other way;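 note: % of control where 0% means no effect; miR-21 action dims this reporter so a rising signal means less miR-21 action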
#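 HeLa cells stably expressing CMV-driven firefly luciferase with a downstream miR-21 binding sequence, endogenously expressing miR-21, were treated with titrations (up to about 40uM final) for 48 hours at 37 degree Celsius. Luciferase luminescence was read after lysis.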
# Rango-impB inh: inhibitors of Rango-importin beta complex formation; Rango CFP/YFP FRET sensor + importin beta, 45 min; Potency, µM (series often up to 92.2 µM), inactives show at the highest dose inhibition of complex formation; 0.031% of 340,000 active; active = rising FRET ratio curve, often small or poorly fitted; inconclusive = mostly compound fluorescence or quenching in the first reads; inactive = flat curves in all reads;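 note: potency is the fitted concentration of half-maximal effect; 0% = DMSO wells and 100% = buffer wells lacking importin beta; nearly all actives have a fitted effect of over 15% in size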
# Target sequence (Q14974 whole entry, looked up): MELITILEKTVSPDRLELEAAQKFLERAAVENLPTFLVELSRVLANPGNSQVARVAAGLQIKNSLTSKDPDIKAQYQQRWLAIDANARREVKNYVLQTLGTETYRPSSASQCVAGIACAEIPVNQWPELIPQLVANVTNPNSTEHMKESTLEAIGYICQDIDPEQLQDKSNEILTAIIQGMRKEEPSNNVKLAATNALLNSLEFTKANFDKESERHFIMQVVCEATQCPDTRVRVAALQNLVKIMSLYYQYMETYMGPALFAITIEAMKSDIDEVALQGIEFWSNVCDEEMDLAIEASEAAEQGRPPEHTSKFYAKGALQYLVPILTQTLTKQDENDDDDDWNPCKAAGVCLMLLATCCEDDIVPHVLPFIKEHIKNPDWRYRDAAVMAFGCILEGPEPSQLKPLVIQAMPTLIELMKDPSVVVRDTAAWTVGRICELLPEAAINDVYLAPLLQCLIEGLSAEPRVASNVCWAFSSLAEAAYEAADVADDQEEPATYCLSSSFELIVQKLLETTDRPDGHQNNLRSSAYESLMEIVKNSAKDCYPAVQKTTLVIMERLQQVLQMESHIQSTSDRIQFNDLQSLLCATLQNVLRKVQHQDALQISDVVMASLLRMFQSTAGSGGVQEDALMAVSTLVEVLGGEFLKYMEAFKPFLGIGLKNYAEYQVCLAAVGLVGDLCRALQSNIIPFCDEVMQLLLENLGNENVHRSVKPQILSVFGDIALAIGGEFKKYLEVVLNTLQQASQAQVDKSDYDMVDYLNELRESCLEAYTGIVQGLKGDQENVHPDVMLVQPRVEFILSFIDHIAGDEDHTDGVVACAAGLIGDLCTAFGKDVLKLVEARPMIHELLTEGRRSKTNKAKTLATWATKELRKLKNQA
#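 FRET biosensor (snurportin 1 IBB flanked by EYFP and cerulean), 50 nM, with compound 5 min, then 0.125 microM importin beta in PBS, 1 mM DTT, 0.02% Tween-20, 0.1% BSA. CFP/YFP ratio read after 45 min at room temperature; pre-read flags interference.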
# The depositor's hits bear a star; ? = inconclusive; · = no result given. Not all compounds are listed (hit frequency here may not be typical).
entry	GLA inh pH 4.5	Rango release inh	miR-21 reporter	Rango-impB inh	SMILES
1	·	-2.2%	·	2.9%	CN(C(=O)COC(=O)c1cncc(Br)c1)C1CCCCC1
2	·	3.9%	0.5%	-0.8%	CCOC(=O)N1CCC(NC(=O)CC2C(=O)NCCN2Cc2ccccc2F)CC1 (centres undefined)
3	-8.7	-1.7%	0.5%	0.4%	C=CCn1cnc2c(c1=O)c1nc3ccccc3nc1n2/N=C/c1cc(OC)c(OC)c(OC)c1
4	·	-0.9%	-3.8%	-0.5%	COc1ccccc1-n1c(SCC(=O)NCC2CCCO2)nc2c([nH]c3ccccc32)c1=O (centres undefined)
5	·	9.4%	-5.2%	-0.4%	O=C(O)c1ccc(N2CCN(Cc3ccc4c(c3)OCO4)CC2)c([N+](=O)[O-])c1
6	·	12.1%	-0.5%	0.1%	Cc1ccccc1CN1CCN(Cc2cc(=O)c3ccccc3[nH]2)CC1CCO (centres undefined)
7	·	-17.6%	·	-4.3%	CCOc1ccc(OCC(=O)OCC(=O)Nc2ccccc2C#N)cc1
8	6.6	0.5%	4.3%	4.7%	CC(C)c1ccccc1OCC(=O)NC1CCCc2ccccc21 (centres undefined)

# Other compounds
entry	GLA inh pH 4.5	Rango release inh	miR-21 reporter	Rango-impB inh	SMILES
9	·	2.3%	2.8%	-0.3%	CC(=O)c1cc(C)ccc1OC(=O)CN1C(=O)c2ccccc2C1=O
10	3.4	3.4%	-7.6%	0.8%	CCS(=O)(=O)N1CCC(C(=O)NC2CCCCC2)CC1
11	-3.0	·	-2.3%	·	Cc1c2cnn(CC(=O)Nc3c(F)c(F)cc(F)c3F)c(=O)c2c(C)n1Cc1ccc(F)cc1
12	-3.9	10.2%	-41.2%	-1.1%	Cc1cc(=O)[nH]c(SCc2csc(-c3ccccc3)n2)n1
13	·	1.6%	2.3%	-0.3%	COc1cc(NC(=S)N2CCN(S(=O)(=O)c3ccc(F)cc3)CC2)cc(OC)c1
14	-3.0	1.3%	3.8%	0.2%	Cc1ccc(Sc2nc3ccc(C)cn3c(=O)c2/C=N/O)cc1
15	9.1	0.5%	-6.4%	2.9%	CS(=O)(=O)N1CC(C(=O)NC2CC2)Oc2ccc(Cl)cc21 (centres undefined)
16	·	-0.3%	?	0.7%	O=C(Nc1cccnc1)c1cc(-c2ccc(Br)cc2)nc2ccccc12

# Next results.
entry	GLA inh pH 4.5	Rango release inh	miR-21 reporter	Rango-impB inh	SMILES
17	·	35.0%	·	2.3%	CN(C)CCCN(C(=O)c1ccc(S(=O)(=O)N2CCCC2)cc1)c1nc2c(F)cc(F)cc2s1
18	5.9	-4.7%	-11.7%	2.8%	CCc1n[nH]c(=S)n1/N=C/c1ccccc1OCc1ccc(Cl)cc1
19	-2.4	7.2%	-4.3%	2.5%	CCCCNC(=O)c1ccccc1NS(=O)(=O)c1ccc2c(c1)OCCO2
20	·	-6.6%	-2.4%	0.6%	COc1cc2c(C(=O)Nc3ccccc3F)cn(C)c(=O)c2cc1OC
21	-9.2	-0.9%	-3.3%	4.3%	Cc1ccc2c(c1)n([O-])c1c([n+]2=O)CCCC1
22	2.6	-2.7%	0.1%	2.4%	COCCN(C(=O)CSc1nnc(-c2ccccc2F)n1C)c1c(N)n(Cc2ccccc2)c(=O)[nH]c1=O
23	·	0.5%	·	-1.3%	CCNCC(=O)Nc1c(C)cccc1C
24	-2.6	0.7%	-0.1%	-6.2%	Cc1cc(Cl)c(S(=O)(=O)NCCC(=O)O)cc1OCC(N)=O

# Further structures:
entry	GLA inh pH 4.5	Rango release inh	miR-21 reporter	Rango-impB inh	SMILES
25	-3.2	-9.6%	2.1%	1.1%	Cc1ccc(CN2CC(C(=O)Nc3ccc(S(=O)(=O)Nc4cc(C)nc(C)n4)cc3)CC2=O)cc1 (centres undefined)
26	2.1	6.0%	-0.9%	-0.3%	CS(=O)(=O)N1CCN(C(=O)c2ccc(Cl)s2)CC1
27	·	11.2%	21.4%	2.2%	CCSc1nsc(NC(=O)Nc2cccc(F)c2)n1
28	9.9	3.0%	-6.7%	6.2%	O=C(COC(=O)Cn1cnc2ccccc2c1=O)Nc1ccccc1Sc1ccc(Cl)cc1
29	-2.3	-0.3%	-7.9%	1.1%	Cc1cc(=O)[nH]c(SCc2cn3ccccc3n2)n1
30	4.0	6.3%	-2.6%	-0.7%	CCc1ccc(C2=NN(C(=O)OC)C(O)(C(F)(F)F)C2)cc1 (centres undefined)
31	1.8	0.6%	-2.2%	1.8%	O=C(c1ccco1)N1CCN(C(=O)c2cc(-c3ccccn3)nc3ccccc23)CC1
32	·	-7.5%	-1.2%	-1.6%	CCOC(=O)N1CCN(C(=O)CSc2ccc(C(=O)OC)cc2[N+](=O)[O-])CC1

# (more compounds)
entry	GLA inh pH 4.5	Rango release inh	miR-21 reporter	Rango-impB inh	SMILES
33	4.6	-3.3%	-2.9%	1.2%	CCO[C@@H]1OC(C(=O)O)=C[C@H](c2ccc(Br)cc2)[C@H]1CCCO
34	-0.2	2.4%	-2.5%	-3.3%	Cc1ccnc(NC(=O)CC(c2ccccc2)c2ccccc2)n1
35	1.3	-0.1%	-6.5%	7.3%	CCCS(=O)(=O)N1CCN(c2ccccn2)CC1
36	7.8	0.7%	-2.9%	-0.1%	OCCC1CN(C2CCN(c3ccccc3F)CC2)CCN1Cc1ccccc1 (centres undefined)
37	-1.1	1.6%	-2.5%	-2.4%	COc1ccc2c(Cl)c(-c3nnc(SCC(=O)c4ccccc4)n3C)sc2c1
38	-9.1	19.7%	-4.9%	4.7%	O=C(Nc1ccc(-c2nc3ccc(NC(=O)c4cccs4)cc3[nH]2)cc1)c1cccs1
39	2.4	1.6%	-15.5%	2.5%	COc1ccccc1C(=O)C1CCCN(C(=O)CN2CCCCC2=O)C1 (centres undefined)
40	·	8.7%	-10.9%	0.2%	COc1ccc(C(C#N)N2N=C(C)CC2c2ccccc2)cc1OC (centres undefined)

# Compound profiles, from the list above. Order of screens: GLA inh pH 4.5 | Rango release inh | miR-21 reporter | Rango-impB inh
# Profile of COc1ccc2c(Cl)c(-c3nnc(SCC(=O)c4ccccc4)n3C)sc2c1 : -1.1 | 1.6% | -2.5% | -2.4%
# Profile of CCO[C@@H]1OC(C(=O)O)=C[C@H](c2ccc(Br)cc2)[C@H]1CCCO : 4.6 | -3.3% | -2.9% | 1.2%
# Profile of O=C(Nc1ccc(-c2nc3ccc(NC(=O)c4cccs4)cc3[nH]2)cc1)c1cccs1 : -9.1 | 19.7% | -4.9% | 4.7%
# Profile of OCCC1CN(C2CCN(c3ccccc3F)CC2)CCN1Cc1ccccc1 (centres undefined) : 7.8 | 0.7% | -2.9% | -0.1%
# Profile of CCCS(=O)(=O)N1CCN(c2ccccn2)CC1 : 1.3 | -0.1% | -6.5% | 7.3%

# (list continues)
entry	GLA inh pH 4.5	Rango release inh	miR-21 reporter	Rango-impB inh	SMILES
41	·	-10.7%	-0.2%	-2.8%	COc1ccc2oc(=O)c(C(=O)NCc3ccccc3)cc2c1
42	4.9	0.3%	6.2%	1.6%	O=C(COC(=O)c1cnccn1)c1cccc([N+](=O)[O-])c1
43	5.4	5.1%	-52.5%	0.6%	CCCCCc1ccc(-c2ccc(/C=C/C(N)=O)cc2)nc1
44	0.6	-1.4%	2.7%	-0.3%	COc1ccc(S(=O)(=O)c2nnn(-c3cccc(OC)c3)c2N)cc1
45	3.4	0.5%	-32.3%	1.1%	COCCn1c(C)cc(C2=NNC(=NC(C)(C)C)SC2)c1C
46	·	0.2%	·	-1.0%	Cc1sc2ncnc(N3CCC(C(=O)Nc4nc(-c5cccs5)cs4)CC3)c2c1C
47	-3.1	-17.8%	0.4%	0.5%	O=C(CCC1COc2ccccc2O1)Nc1ccc(Cl)cn1 (centres undefined)
48	-4.1	-10.1%	-5.1%	?	O=C1Nc2ccc([N+](=O)[O-])cc2OC1CCN1CCN(c2ccccc2)CC1 (centres undefined)

# (continued)
entry	GLA inh pH 4.5	Rango release inh	miR-21 reporter	Rango-impB inh	SMILES
49	-2.4	-3.2%	-48.3%	0.0%	CCOC(=O)c1nc(NCCc2ccccc2)sc1C
50	-9.8	3.0%	-5.0%	1.5%	COc1ccc(/C=N/c2c(-c3ccco3)nc3ccccn23)cc1OC
51	·	10.7%	-13.8%	-0.8%	CCc1ccc(NC(=O)CS(=O)CC(=O)Nc2ccc(N3CCOCC3)cc2)cc1 (centres undefined)
52	-12.6	1.6%	-6.2%	0.2%	CC(C)=CC1C=C(C)C(C)C2C(=O)NNC(=O)C12 (centres undefined)
53	·	-4.2%	-3.0%	-1.7%	CC(Oc1ccc2c3c(c(=O)oc2c1)CCCC3)C(=O)NCC1CCC(C(=O)O)CC1 (centres undefined)
54	1.1	-16.9%	-3.3%	3.5%	Cc1cc(=O)[nH]c(SCc2nc3ccccc3n2Cc2ccccc2)n1
55	·	7.4%	·	4.1%	O=C(COC(=O)Cc1ccccc1F)NC(=O)NC1CCCC1
56	·	25.4%	·	-0.6%	CC(=O)NC(c1ccc(Cl)cc1)c1ccc2cccnc2c1O (centres undefined)

# (cont.)
entry	GLA inh pH 4.5	Rango release inh	miR-21 reporter	Rango-impB inh	SMILES
57	-5.2	0.4%	-2.2%	4.6%	CCn1c(=O)c(C(=O)NCc2cccnc2)c(O)c2ccccc21
58	5.2	25.9%	-18.9%	-0.3%	CCC(=O)Nc1ccc(NC(=O)c2c(C)nc3ccccn23)cc1
59	·	4.0%	·	4.1%	CCCCC(=O)NC(c1cccc([N+](=O)[O-])c1)c1ccc2cccnc2c1O (centres undefined)
60	-4.4	-7.7%	-4.2%	-3.3%	COc1ccc(CCNC(=O)CSc2nnc(Cn3c(=O)sc4ccccc43)n2C)cc1OC
61	·	-7.1%	·	0.0%	O=C(Nc1nnc(-c2cc(Cl)ccc2Cl)o1)C1=COCCO1
62	·	4.1%	-13.2%	-1.2%	Cc1cccc(NC(=O)CCS(=O)(=O)c2ccccc2)n1
63	?	3.1%	1.6%	3.4%	COc1ccc(C2CC(Cn3cc(C#N)c(=O)n(C)c3=O)ON2C)cc1 (centres undefined)
64	·	-10.9%	·	0.3%	Cc1ccc(Cl)cc1NS(=O)(=O)c1ccccc1

# Of the compounds above, these have a nitro group on carbon:
entry	GLA inh pH 4.5	Rango release inh	miR-21 reporter	Rango-impB inh	SMILES
5	·	9.4%	-5.2%	-0.4%	O=C(O)c1ccc(N2CCN(Cc3ccc4c(c3)OCO4)CC2)c([N+](=O)[O-])c1
32	·	-7.5%	-1.2%	-1.6%	CCOC(=O)N1CCN(C(=O)CSc2ccc(C(=O)OC)cc2[N+](=O)[O-])CC1
42	4.9	0.3%	6.2%	1.6%	O=C(COC(=O)c1cnccn1)c1cccc([N+](=O)[O-])c1
48	-4.1	-10.1%	-5.1%	?	O=C1Nc2ccc([N+](=O)[O-])cc2OC1CCN1CCN(c2ccccc2)CC1 (centres undefined)
59	·	4.0%	·	4.1%	CCCCC(=O)NC(c1cccc([N+](=O)[O-])c1)c1ccc2cccnc2c1O (centres undefined)

# Next section:
entry	GLA inh pH 4.5	Rango release inh	miR-21 reporter	Rango-impB inh	SMILES
65	2.8	5.4%	-6.1%	?	COc1cccc2sc(N3CCN(c4nc5ccccc5s4)CC3)nc12
66	-7.3	25.4%	-31.7%	0.2%	Cc1ccccc1Nc1c(N)c(=O)oc2ccccc12
67	3.6	-4.1%	-8.6%	4.1%	Cc1ccc(O)c(C(=O)c2cnc3c(c2)CN(CCC(C)C)C(=O)N3)c1
68	-4.0	1.7%	-9.2%	-0.3%	Cc1cc(C)nc(NS(=O)(=O)c2ccc(-n3cccc3)cc2)n1
69	-20.6	0.2%	-10.1%	2.7%	Cc1cccc2c1N(CCCOc1ccccc1)C(=O)C2=O
70	-10.1	-15.9%	21.7%	-0.1%	Cc1ccc2cc(C3C(C#N)=C(N)Oc4c3ccc3cccnc43)c(=O)[nH]c2c1 (centres undefined)

# High-throughput results from PubChem BioAssay.
